# Screening data deposited in PubChem BioAssay by several laboratories.
# WNV NS2B-NS3 inh = WNV NS2B-NS3 proteinase inhibition; z-score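 (tested at a level between 10 and 100 µM)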; WNV NS2B-NS3 protease, fluorogenic substrate Ex360/Em465; stronger effect = lower value; AID 577; 65,000 tested, 0.18% active; P06935;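 active = z-score at -3 or under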;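 note: score is relative to mean and spread of the compound wells of a plate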
# Target sequence (P06935 1371-1501 limits assumed): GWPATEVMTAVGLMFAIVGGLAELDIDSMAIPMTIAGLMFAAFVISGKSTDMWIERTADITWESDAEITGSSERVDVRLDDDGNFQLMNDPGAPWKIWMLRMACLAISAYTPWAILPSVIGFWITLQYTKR
# Target sequence (P06935 1502-1679 limits assumed): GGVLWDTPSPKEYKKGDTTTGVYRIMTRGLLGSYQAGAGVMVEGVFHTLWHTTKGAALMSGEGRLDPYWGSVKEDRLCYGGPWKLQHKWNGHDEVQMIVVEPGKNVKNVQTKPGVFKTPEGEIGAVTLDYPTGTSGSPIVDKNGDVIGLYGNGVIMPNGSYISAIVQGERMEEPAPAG
# Hsc70 = small molecules displacing fluorescent ligand from Hsc70 – biochemical, fluorescence polarization, primary screen (AID 568) | Hsc70 fluorescence polarization, probe displacement; higher % means a stronger effect; strong numbers were not always called active | displacement, % at 20 µM, or IC50 in µM where a hit was titrated | 83,000 tested, under 10 active;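 active = displacement above 50% without optical interference and an IC50 on retest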;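 note: ATPase domain with a fluorescein-tagged ATP probe; 0% = vehicle and 100% = excess ADP; read after one hour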
# MT1-MMP promoter = inhibitors of MT1-MMP promoter transcription, cell-based, luciferase reporter, luminescence (AID 618); 87,000 tested, 0.62% active; MT1-MMP promoter luciferase reporter cells, luminescence; calls from a first round at 10 µM; hits with a dose series show EC50 in µM;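 active = over half of the reporter light lost at 10 µM or EC50 under 50 µM; inactive = the rest and hits that failed the dose series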;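 note: actives suppress MT1-MMP promoter-driven transcription so potencies describe inhibitors; HT1080 fibrosarcoma cells; overnight exposure; toxic or luciferase-blocking compounds were not removed from the actives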
# An asterisk follows results filed as active; i = inactive; · = no result given.
# The line under a structure holds: WNV NS2B-NS3 inh	Hsc70	MT1-MMP promoter
> C=CCSc1nc2ccccc2n1S(=O)(=O)c1ccc(C)cc1
    ·	4.5%	i
> Cc1nc(SCC(=O)N2c3ccccc3Sc3ccccc32)n[nH]1
    ·	-1.6%	i
> CSCC[C@H](NC(=O)c1ccc(Cl)c(S(=O)(=O)N2CCCC2)c1)c1nc2ccccc2[nH]1
    ·	2.6%	i
> Cc1ccc(C(=O)N(Cc2ccc3c(c2)OCO3)Cc2nc3ccccc3c(=O)[nH]2)cc1
    ·	1.8%	i
> CC(C)(C)NC(=O)c1nc2ccccc2s1
    ·	1.7%	i
> CCN(C(=O)CSc1nc2ccccc2n1CCc1ccccc1)C1CCS(=O)(=O)C1 (stereo not given)
    ·	4.5%	i
> CCOC(=O)c1ccccc1NC(=O)c1nc2nccc(C)n2n1
    ·	1.6%	i
> O=C(CSc1nc2ccc(Cl)cc2[nH]1)NCc1ccco1
    1.12	0.1%	i
> CCOC(=O)c1c(C)cc(C)n2c1nc1ccccc12
    ·	0.8%	i
> Cc1cc(C(=O)N2CCc3ccccc32)c2cc(F)ccc2n1
    -0.25	-3.1%	i
> O=C(CSc1nnnn1-c1ccccc1)Nc1ncc2c(n1)CC(c1ccccc1)CC2=O (stereo not given)
    ·	0.7%	i
> Cc1ccc(C(C)C)c(OCc2nnc(SCC(=O)Nc3nccs3)n2C)c1
    2.7	-3.4%	i
> COc1ccc(-c2noc(C3CCCN(S(=O)(=O)c4ccc(C)c(Cl)c4)C3)n2)cc1OC (stereo not given)
    -0.34	-1.3%	i
> Cc1occc1-c1nnc(SCC(=O)c2ccccc2)n1CC1CCCO1 (stereo not given)
    -0.67	-3.3%	i
> O=C(CN(C(=O)CNC(=O)c1ccco1)c1ccc(Cl)c(Cl)c1)NC1CCCCC1
    -0.81	0.8%	i
> Cn1c(NCCCO)nc2c(c1=O)C1(CCCCC1)Cc1ccccc1-2
    0.25	4.9%	i
> CSc1ccccc1C(=O)Nc1ncc(C)s1
    ·	0.5%	i
> CCOc1ccc(C2=Nn3cnnc3SC2)cc1
    -0.32	0.2%	i
> CCC(=O)c1ccc(OCc2ccc(C(=O)OC)o2)c(OC)c1
    2.38	7.9%	i
> C=CCc1ccc(OCC(O)COCC)c(OC)c1 (stereo not given)
    1.42	2.9%	i

# 3 entries from above, sorted by SMILES length, smallest number first.
# The line under a structure holds: WNV NS2B-NS3 inh	Hsc70	MT1-MMP promoter
> CCOc1ccc(C2=Nn3cnnc3SC2)cc1
    -0.32	0.2%	i
> CCOC(=O)c1ccccc1NC(=O)c1nc2nccc(C)n2n1
    ·	1.6%	i
> COc1ccc(-c2noc(C3CCCN(S(=O)(=O)c4ccc(C)c(Cl)c4)C3)n2)cc1OC (stereo not given)
    -0.34	-1.3%	i

# Next records.
# The line under a structure holds: WNV NS2B-NS3 inh	Hsc70	MT1-MMP promoter
> CCN1CCN(C(=S)Nc2ccccc2Cl)CC1
    ·	-1.8%	i
> CCSc1nnc([C@H](Cc2c[nH]c3ccccc23)NC(=O)OC(C)(C)C)o1
    ·	0.2%	i
> CCOC(=O)c1cccc(NC(=O)c2cc3sccc3n2C)c1
    -0.19	-0.7%	i
> CCN1CCN(CC(=O)NC2CCCC2)C(=O)C1=O
    -0.14	4.3%	i
> N#Cc1c(N2CCN(C(=O)c3ccccc3)CC2)nc(-c2ccccc2)c2c1CCCC2
    ·	-0.2%	i
> CCOc1ccccc1OCCCC(=O)N1CCN(S(=O)(=O)c2cccc(F)c2)CC1
    0.07	-6.3%	i
> CCCCOC(=O)CCc1nc2ccccc2[nH]c1=O
    ·	2.3%	i
> CCOC(=O)c1[nH]c2ccc(OC)cc2c1NC(=O)CCN1CCCC(C)C1 (stereo not given)
    1.98	3.2%	i
> CC(C)Cc1cc(C(=O)Nc2ccc(F)cc2F)no1
    0.84	3.5%	i
> COC(=O)C1=C(C)NC2=C(C(=O)CCC2)C1c1cccs1 (stereo not given)
    -0.41	4.5%	i
> COc1cccc(N2CCN(C3CC(=O)N(c4ccc(Cl)c(Cl)c4)C3=O)CC2)c1 (stereo not given)
    0.59	3.3%	i
> CC(=O)c1ccc(N2CCN(C(=O)c3ccc4c(=O)n(-c5ccccc5)c(=O)[nH]c4c3)CC2)cc1
    ·	1.9%	i
> O=C(Nc1ccccc1N1CCN(C(=O)c2ccc(Cl)cc2)CC1)c1cccnc1
    0.56	-2.1%	i
> Fc1cccc(Cl)c1CSc1nnc(COc2cccc3cccnc23)o1
    1.72	-6.0%	i
> CCOC(=O)N1CCN(c2nnnn2-c2ccccc2)CC1
    -1.35	3.1%	i
> N#Cc1cnn(Cc2ccc(Cl)cc2)c1N
    -0.88	1.5%	i
> CC(C)C(=O)N(c1ccc2oc(=O)sc2c1)S(=O)(=O)c1cccs1
    2.26	-3.3%	i
> CC(=O)OCC(=O)NCc1ccc2c(c1)OCO2
    -0.93	0.9%	i
> COc1ccc(-c2nnn(Cc3nc(N)nc(N4CCOCC4)n3)n2)cc1OC
    ·	-0.2%	i
> CCOC(=O)N1CCC(NC(=O)c2cnc3n(c2=O)CCS3)CC1
    0.14	2.0%	i
> CCOCCCNC(=O)C(NC(=O)CC1NC(=O)NC1=O)c1ccc(Cl)cc1 (stereo not given)
    -1	-6.0%	i
> CN(C)S(=O)(=O)c1ccc2c(c1)c(=O)c(C(=O)N1CCOCC1)cn2C
    -0.24	-6.8%	i
> COc1ccccc1-c1noc(-c2cccnc2)n1
    -0.76	0.9%	i
> Cc1ccc(C(=O)NC(Cc2c[nH]c3ccccc23)C(=O)O)o1 (stereo not given)
    1.21	2.9%	i
> CCOC(=O)c1ccc(N2C(=O)CC(Sc3nnc(C)s3)C2=O)cc1 (stereo not given)
    -0.76	-5.4%	i
> COc1cccc(C2C(=O)N(C3CCCCC3)CC(=O)N2Cc2ccc(F)cc2)c1 (stereo not given)
    ·	-1.8%	i
> Oc1c(C=NCc2ccncc2)sc2ccccc12
    -0.36	4.1%	i
> O=c1c2cnn(-c3ccc(F)cc3)c2ncn1Cc1ccccn1
    -0.35	-5.9%	i
> CCOc1ccccc1C(=O)NCCCn1ccnc1
    0.49	3.0%	i
> CC1(C(=O)N(CC(=O)NC2CCCC2)Cc2ccco2)CC(=O)N=C2C=CC=CN21 (stereo not given)
    0.81	2.6%	i
> COCC(C)n1c(-c2ccc3c(c2)NC(=O)CO3)csc1=Nc1ccc(OC(F)F)cc1 (stereo not given)
    ·	4.3%	i
> COc1cccc(C(=O)N(Cc2cc3cc(C)ccc3[nH]c2=O)CC2CCCO2)c1 (stereo not given)
    0.33	-1.0%	i
> COc1ccccc1N1CCN(C/C(O)=C(\C#N)c2nc(-c3ccccc3)cs2)CC1
    0.25	-2.1%	i
> Cc1ccc2c(c1)NC(=O)CC(c1ccccc1)=N2
    ·	4.9%	i
> Cc1ccc(NC(=O)N2CCCC2C(=O)NCCC2=CCCCC2)cc1 (stereo not given)
    1.36	-5.2%	i
> CC(=O)Nc1nc2c(F)cccc2s1
    0.86	3.2%	i
> Cc1cc(NC(=O)c2ccccc2F)n(-c2nc3ccccc3[nH]2)n1
    1.42	1.3%	i
> Cc1c(C)[n+](=O)c2c(n1[O-])CCC2
    1.55	-1.4%	i
> Cc1ccc(S(=O)(=O)N2CCN(C(=O)N3CCOCC3)C2c2ccc(N(C)C)cc2)cc1 (stereo not given)
    0.31	1.2%	i
> CC(=O)C1=C(C)NC(SCC(=O)c2ccc(Cl)c(Cl)c2)=C(C#N)C1c1ccco1 (stereo not given)
    -0.51	-33.4%	i

# Random excerpt: 2 records from the list.
# The line under a structure holds: WNV NS2B-NS3 inh	Hsc70	MT1-MMP promoter
> Cn1c(NCCCO)nc2c(c1=O)C1(CCCCC1)Cc1ccccc1-2
    0.25	4.9%	i
> CCOc1ccccc1OCCCC(=O)N1CCN(S(=O)(=O)c2cccc(F)c2)CC1
    0.07	-6.3%	i

# Further records.
# The line under a structure holds: WNV NS2B-NS3 inh	Hsc70	MT1-MMP promoter
> CC(=O)N1CCN(c2ccc(NC(=O)COc3ccc(Cl)cc3Cl)cc2)CC1
    0.91	8.8%	i
> CCOC(=O)C1CCN(C(=O)C2CCN(S(=O)(=O)c3cccc4cccnc34)CC2)CC1
    -1.38	6.8%	i
> Cc1c(-n2c(SCC(=O)O)nnc2-c2ccccc2Cl)c(=O)n(-c2ccccc2)n1C
    0.02	4.5%	i
> CCNC(=O)NC(=O)CSc1nc2ccccc2n1CCOC
    ·	-3.7%	i
> CCOC(=O)C1=C(O)CCn2c1nc1ccccc12
    -0.35	2.2%	i
> CCOC(=O)C1CCN(C(=O)CCNC(=O)c2cc(OC)c(OC)c(OC)c2)CC1
    1.05	-1.2%	i
> CCOc1ccc(C2C(C#N)=C(N)Oc3n[nH]c(C)c32)cc1OC(=O)C1CC1 (stereo not given)
    0.49	-4.8%	i
> Cc1cc(C(=O)CSc2nnnn2C)c(C)n1CCc1ccc(F)cc1
    0.33	2.5%	i
> COc1ccc(-c2cc3nc(C)cc(NCCO)n3n2)cc1
    0.17	-0.2%	i
> CCOc1cc(S(=O)(=O)N2CCN(CC)CC2)ccc1Cl
    -0.11	2.0%	i
> O=c1[nH]c2ccc(Cl)cc2c(=O)n1Cc1ccco1
    -1.18	-5.6%	i
> CSc1nc(-c2ccccc2)nn1C(=O)c1ccco1
    ·	-0.4%	i
> C=CCOn1c(=O)c(-c2ccc(OC)cc2)[n+]([O-])c2ccccc21
    -0.29	-2.6%	i
> COc1ccc(NC(=O)CN2CCN(c3ccccc3Cl)CC2)cc1
    ·	0.3%	i
> COc1ccccc1NC(=O)CSc1nnc(-c2ccncc2)o1
    0.19	-1.7%	i
> CC(C)CCNc1nc(-c2ccco2)c2c(c1C#N)CCCC2
    ·	-6.9%	i
> CCOC(=O)C1CCCN(C(=O)c2cccs2)C1 (stereo not given)
    -0.49	-2.7%	i
> COC(=O)c1ccccc1NC(=O)CSc1nc2c(c(=O)n(C)c(=O)n2C)n1C
    0.85	0.4%	i
> CC(=O)Nc1ccc(-c2nnc(SCc3ccc(C)cc3)n2C)cc1
    ·	-4.0%	i
> CN(C(=O)COC(=O)COc1ccc(Cl)cc1)C1CCCCC1
    1.09	-2.7%	i
> Cc1cccc(N2CCN(C(=O)CCNC(=O)Cn3ccc4ccccc4c3=O)CC2)c1C
    -0.38	-0.3%	i
> COc1ccc(NC(=O)N(Cc2cccnc2)Cc2ccccc2Cl)c(OC)c1
    2.05	4.8%	i
> COc1ccc(C(=O)Nc2ccc3oc(-c4cccc(F)c4)nc3c2)cc1OC
    -0.53	2.4%	i
> Cc1cc(Nc2cccc(C)c2C)n2nc(C)nc2n1
    0.37	-0.3%	i
> Cc1ccc2cc(C)c(N3CCN(c4ccccn4)CC3)nc2c1
    -0.92	-5.1%	i
> Cc1nccn1-c1ncnc2sc3c(c12)CCCC3
    -0.48	-3.7%	i
> CC(C)CCNC(=O)CN(C(=O)Cn1nnc(-c2ccc(F)cc2)n1)C1CCCC1
    -0.44	1.0%	i
> COc1ccc2c(c1)[nH]c1c(=O)n(Cc3ccccn3)cnc12
    ·	2.5%	i
> Cc1ccc(N2C(=O)c3ccc(C(=O)Nc4cccnc4)cc3C2=O)c(C)c1
    ·	2.6%	i
> Cc1cc(C)n(S(=O)(=O)c2cc(Cl)ccc2Cl)n1
    -0.15	2.7%	i
> Cc1c(Cl)ccc2c1NC(=O)[C@]21[C@@H]2C(=O)N(Cc3ccccc3)C(=O)[C@@H]2[C@@H]2CCCN21
    -0.14	-31.2%	i
> CC(=O)c1c(C)nn(C(=O)c2cccs2)c1C
    1.41	1.8%	i
> CCc1c(C)c(C#N)c2nc3ccccc3n2c1Nc1c(C)n(C)n(-c2ccccc2)c1=O
    -0.7	2.7%	i
> COc1ccc(C(C(=O)NC2CCCC2)N(C(=O)c2ccco2)c2ccc(OC)c(OC)c2)cc1 (stereo not given)
    ·	-2.2%	i
> C=C(C)C1CC=C(C)/C(=N/NC(=O)COc2cccc(C)c2)C1 (stereo not given)
    ·	-4.7%	i
> CC(C)N1CC=C2C(C#N)=C(N)C(C#N)(C#N)C(c3ccccc3)C2C1 (stereo not given)
    0.64	78.4%	i
> COc1cc2c(cc1OC)CN(CC(=O)Nc1ccccc1C#N)CC2
    ·	5.5%	i
> CC(C)CN(C(=O)COC(=O)CCc1c[nH]c2ccccc12)C1CCS(=O)(=O)C1 (stereo not given)
    -0.4	3.6%	i
> O=C(CCN1CCCC1Cc1ccccc1)c1ccc2c(c1)OCCO2 (stereo not given)
    -0.22	2.8%	i
> CCN(CC)c1ccc(-c2nc3cnccn3c2NC2CCCC2)cc1
    ·	-7.1%	i
> O=C(CNS(=O)(=O)c1ccc(Br)s1)N1CCN(c2ncccn2)CC1
    1.56	-1.9%	i
> Cc1cc(C)c(C#N)c(N2CCCC(C(N)=O)C2)n1 (stereo not given)
    0.6	-9.7%	i
> O=C(c1cnn2c(C(F)F)cc(-c3ccccc3)nc12)N1CCN2CCCC2C1 (stereo not given)
    -0.5	2.0%	i
> Cc1cc(C)c(NC(=O)CN2C(=O)NC3(CCCCC3)C2=O)c(Cl)c1
    0.39	-8.6%	i
> CCOC(=O)c1c(NCc2ccc3c(c2)OCO3)c2ccccc2[nH]c1=O
    -0.58	-3.6%	i
> Cc1ccc(CNC(=O)CCNS(=O)(=O)c2cccs2)cc1
    ·	1.5%	i
> Cc1oc(-c2ccccc2F)nc1CS(=O)(=O)CC(=O)N1CCCCCC1
    0.5	1.6%	i
> CCn1c(SCC(=O)Nc2ccc3c(c2)OCCO3)nnc1-c1ccccn1
    -0.77	1.3%	i

# The list is partial, so the mix of outcomes need not match the whole.
